High-throughput results (PubChem)
RecA splice inh: blocks M. tuberculosis RecA intein splicing. P9WHJ3. cell-free RecA intein splicing, fluorescence. inhibition, %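 (about 9 µM by stock and volumes)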. actives 0.75% (n = 290,000). AID 2221; in the data active = inhibition above about 30%; inconclusive = no clear call, values can overlap the other calls;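 note: 0% = vehicle wells and 100% = reference inhibitor control wells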
Target sequence (P9WHJ3 whole entry, looked up, canonical isoform): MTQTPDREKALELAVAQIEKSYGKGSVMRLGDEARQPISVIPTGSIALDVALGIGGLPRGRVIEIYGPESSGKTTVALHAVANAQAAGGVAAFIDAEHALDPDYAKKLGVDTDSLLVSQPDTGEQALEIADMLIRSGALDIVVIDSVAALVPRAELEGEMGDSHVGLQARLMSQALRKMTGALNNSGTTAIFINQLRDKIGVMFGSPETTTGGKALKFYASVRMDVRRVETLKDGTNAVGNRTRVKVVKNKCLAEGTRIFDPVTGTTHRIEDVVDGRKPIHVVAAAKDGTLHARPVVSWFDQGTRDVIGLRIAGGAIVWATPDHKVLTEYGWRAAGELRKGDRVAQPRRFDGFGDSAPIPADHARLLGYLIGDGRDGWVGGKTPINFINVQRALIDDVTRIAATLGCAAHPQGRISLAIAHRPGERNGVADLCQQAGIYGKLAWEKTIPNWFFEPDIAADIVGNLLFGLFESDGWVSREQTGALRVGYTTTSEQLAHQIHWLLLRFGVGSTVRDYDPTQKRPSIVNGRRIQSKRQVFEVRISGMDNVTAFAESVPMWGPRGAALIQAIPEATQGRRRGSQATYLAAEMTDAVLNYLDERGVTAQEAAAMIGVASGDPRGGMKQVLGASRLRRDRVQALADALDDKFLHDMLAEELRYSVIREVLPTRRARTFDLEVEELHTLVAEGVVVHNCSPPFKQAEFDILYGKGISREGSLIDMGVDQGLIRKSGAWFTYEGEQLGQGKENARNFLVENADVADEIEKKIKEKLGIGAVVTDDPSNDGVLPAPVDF
Mtb bLac sens: beta-lactam sensitization of Mtb H37Rv | M. tuberculosis H37Rv growth with meropenem, percent inhibition; hits of this screen are not shown here | inhibition, % at 25 µM | actives 0.27% (n = 330,000) | AID 434955;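 active = about 74% or more and at least 40 points above the plate without the antibiotic, then above 30% in a dose series; inconclusive = first-round hits that could not be retested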;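 note: growth measured after seven days incubation then overnight dye step; 0% = bacteria only wells and 100% = bacteria with antibiotic; twin plates without the antibiotic show which effects depend on it; some results filed as inactive read as strong as hits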
Mtb H37Rv: M. tuberculosis H37Rv growth inhibitors, H37Rv strain (AID 1626) | M. tuberculosis H37Rv growth inhibition; higher % means a stronger effect | one-dose inhibition, % at 10 µM; IC50 in µM for titrated hits | actives 0.95% (n = 220,000);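 active = confirmed in a dose series; inconclusive = inhibition above 80% but not taken into the dose series; inactive = below 80% or under 30% at every dose of the series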;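 note: bacteria incubated seven days before Alamar blue readout; 0% = bacteria only wells and 100% = bacteria with antibiotic wells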
Arbovirus inh: blocks arbovirus infection; actives 0.37% (n = 200,000); AID 1251; inhibition, % at 10 µM; arbovirus infection cell-based antiviral screen;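 active = inhibition from about 30%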;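 note: bluetongue infection of BSR cells; cell survival read as ATP light after 72 h; 0% = infected wells without compound and 100% = uninfected wells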
YopH PTP inh: inhibitors of Yersinia enterocolitica YopH tyrosine phosphatase. actives 0.16% (n = 140,000). AID 898. fluorescence Ex485/Em525. inhibition, %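 (about 10 µM by stock and volumes)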;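 active = inhibition of 50% or more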;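 note: controls were vehicle for no effect and minimum signal wells for full effect; inactives centre near -20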
* = called active by the depositor. Only part of the results is shown. The share of hits here may be higher or lower than overall.

Screening O=C(Cc1ccccc1)Nc1ccc(N2CCOCC2)cc1N1CCOCC1 returned RecA splice inh -1.0, Mtb bLac sens -4, Mtb H37Rv -8%, Arbovirus inh 5 and YopH PTP inh -201.
COc1ccc(/C=N/Nc2ncc(-c3ccccc3)cn2)c(OC)c1 was read as RecA splice inh -2.1, Mtb bLac sens 93, Mtb H37Rv 36%, Arbovirus inh -13 and YopH PTP inh -20.
Screening Cn1cnc([N+](=O)[O-])c1Sc1nnc(-c2cccnc2)n1C returned RecA splice inh 39*, Mtb bLac sens 53 and Mtb H37Rv -11%.
Cc1ccccc1-c1nnc2c3ccccc3c(C)nn12 was read as RecA splice inh -3.7, Mtb bLac sens -5, Mtb H37Rv -5%, Arbovirus inh -5 and YopH PTP inh -31.
For O=C(C1CC(=O)N(c2ccc(Cl)cc2)C1)N1CCOCC1 (configuration not stated) the results were RecA splice inh -1.7 and Mtb bLac sens -5.
`O=[N+]([O-])c1ccc(/C=N/Nc2nc(N3CCCC3)nc(N3CCCC3)n2)o1` gave RecA splice inh -0.2, Mtb bLac sens 100, Mtb H37Rv inconclusive, Arbovirus inh -21 and YopH PTP inh -17.
For C=CCNS(=O)(=O)c1nc(C)c(Cl)c(C)c1C#N the results were RecA splice inh -1.4, Mtb bLac sens -4, Mtb H37Rv -9%, Arbovirus inh 0 and YopH PTP inh -29.
For C=CCn1c(=O)c2ccccc2n2c(SCC(=O)Nc3cc(C)on3)nnc12 the results were RecA splice inh 1.0, Mtb bLac sens -7, Mtb H37Rv -3%, Arbovirus inh 4 and YopH PTP inh -28.
`CC(=O)c1nn(-c2cccc(Br)c2)cc1C(=O)c1ccc2ccccc2c1` gave RecA splice inh -0.6, Mtb bLac sens 7, Mtb H37Rv -7%, Arbovirus inh -23 and YopH PTP inh -9.
Screening CC1Oc2ccccc2N(CC(=O)Nc2ccc(F)cc2)C1=O (configuration not stated) returned RecA splice inh 0.4 and Mtb bLac sens 3.
Screening COc1cccc(-c2nc(-c3ccc(NC(=O)c4cccnc4)cc3)no2)c1 returned RecA splice inh -2.2, Mtb bLac sens -3, Mtb H37Rv 5%, Arbovirus inh -8 and YopH PTP inh -7.
`O=C(c1ccccc1)c1cc([N+](=O)[O-])ccc1N1CCOCC1` gave RecA splice inh -4.6, Mtb bLac sens -1, Mtb H37Rv -4%, Arbovirus inh -5 and YopH PTP inh -38.

Four compounds from above, ordered by SMILES length, largest number first.
`O=[N+]([O-])c1ccc(/C=N/Nc2nc(N3CCCC3)nc(N3CCCC3)n2)o1` gave RecA splice inh -0.2, Mtb bLac sens 100, Mtb H37Rv inconclusive, Arbovirus inh -21 and YopH PTP inh -17.
For C=CCn1c(=O)c2ccccc2n2c(SCC(=O)Nc3cc(C)on3)nnc12 the results were RecA splice inh 1.0, Mtb bLac sens -7, Mtb H37Rv -3%, Arbovirus inh 4 and YopH PTP inh -28.
`O=C(c1ccccc1)c1cc([N+](=O)[O-])ccc1N1CCOCC1` gave RecA splice inh -4.6, Mtb bLac sens -1, Mtb H37Rv -4%, Arbovirus inh -5 and YopH PTP inh -38.
For O=C(C1CC(=O)N(c2ccc(Cl)cc2)C1)N1CCOCC1 (configuration not stated) the results were RecA splice inh -1.7 and Mtb bLac sens -5.

Next compounds
Screening N#Cc1c(C(F)(F)F)cc(-c2ccccc2)[nH]c1=O returned RecA splice inh -13, Mtb bLac sens -12, Mtb H37Rv -6%, Arbovirus inh 22 and YopH PTP inh -35.
For CCNc1nnc(CSc2nc3ccccc3s2)s1 the results were RecA splice inh -2.6, Mtb bLac sens -15, Mtb H37Rv -8%, Arbovirus inh 4 and YopH PTP inh -13.
COc1ccc(OC)c(-n2c(SCC(C)=O)nnc2-c2cccc(S(=O)(=O)N(C)C)c2)c1 was read as RecA splice inh 5.0, Mtb bLac sens 7, Mtb H37Rv 0%, Arbovirus inh 5 and YopH PTP inh -20.
`COc1ccc(CNC(=O)c2ccccc2NS(C)(=O)=O)cc1` gave RecA splice inh 1.4, Mtb bLac sens -1, Mtb H37Rv -24% and Arbovirus inh 4.
COc1cccc(-n2nnnc2SCC(=O)NCc2ccc3c(c2)OCO3)c1 was read as RecA splice inh 1.4, Mtb bLac sens 7, Arbovirus inh -3 and YopH PTP inh -26.
Screening CSc1ccc(/C=N/Nc2nc(C)cc(C)n2)cc1 returned RecA splice inh -2.0, Mtb bLac sens -3, Mtb H37Rv 0% and Arbovirus inh 5.
Screening O=C(Nc1ccccc1Br)c1ccccc1-c1ccccc1 returned RecA splice inh 8.1, Mtb bLac sens 70, Mtb H37Rv -1%, Arbovirus inh -18 and YopH PTP inh -44.
Screening O=C(c1ccc(S(=O)(=O)N2CCCC2)cc1)N1CCN(Cc2ccc3c(c2)OCO3)CC1 returned RecA splice inh 2.9, Mtb bLac sens -2, Mtb H37Rv -6%, Arbovirus inh 1 and YopH PTP inh -6.
COCCNC(=O)C1CC(c2cccc([N+](=O)[O-])c2)=NO1 (configuration not stated) was read as RecA splice inh -1.8, Mtb bLac sens -24, Mtb H37Rv -1%, Arbovirus inh 4 and YopH PTP inh -30.
`O=C(CCCn1c(=S)[nH]c2cc3c(cc2c1=O)OCO3)N1CCN(c2ccc(Cl)cc2)CC1` gave RecA splice inh 1.2, Mtb bLac sens 7, Mtb H37Rv 9%, Arbovirus inh 13 and YopH PTP inh -36.
Screening O=Cc1ccccc1OCCCOc1cccc2cccnc12 returned RecA splice inh 5.9 and Mtb bLac sens 9.
For COCCNC(=O)CSCc1cc(C)cc(C)c1 the results were RecA splice inh 2.0, Mtb bLac sens -9, Mtb H37Rv -1% and Arbovirus inh 0.
Screening C=CCn1c(O)c(C(C)=Nc2ccc(N(C)C)cc2)c(=O)[nH]c1=O returned RecA splice inh -6.6, Mtb bLac sens -5, Mtb H37Rv 3%, Arbovirus inh -8 and YopH PTP inh 3.
`COc1ccccc1NC(=S)N1CCn2cccc2C1c1cccnc1` (configuration not stated) gave RecA splice inh 1.4, Mtb bLac sens -5, Mtb H37Rv -5% and Arbovirus inh 10.
`Cc1cccc(C(=O)NNC(=O)c2ccccc2-n2cccc2)c1` gave Mtb bLac sens 2, Mtb H37Rv 0% and Arbovirus inh -7.
Screening CCNC(=O)C(=O)Nc1ccc(OC)c(Cl)c1 returned RecA splice inh -1.0, Mtb bLac sens -5, Mtb H37Rv -5% and Arbovirus inh 2.
`COC(=O)c1cc(-c2ccccc2)sc1NC(=O)CN1C(=O)c2ccccc2C1=O` gave RecA splice inh -2.1, Mtb bLac sens -25, Mtb H37Rv -4%, Arbovirus inh -3 and YopH PTP inh -43.
`Cc1nc2scc(C)n2c(=O)c1S(=O)(=O)NCc1ccccc1` gave RecA splice inh -6.9 and Mtb bLac sens -7.
COc1ccc(NS(=O)(=O)c2ccc(NC(=O)C3CC3)cc2)cc1 was read as RecA splice inh -7.3 and Mtb bLac sens -7.
Screening Cc1ccc(Oc2ncc(-c3ccc(Cl)cc3)cn2)cc1 returned RecA splice inh 1.4, Mtb bLac sens -7, Mtb H37Rv 1%, Arbovirus inh 8 and YopH PTP inh -23.
For O=C(N/N=C1/CC2CCC1C2)c1cc2ccccc2cc1O (configuration not stated) the results were RecA splice inh -136 and Mtb bLac sens -7.
Cn1c(SCC(=O)Nc2ccc(F)cc2)nc2c([nH]c3ccccc32)c1=O was read as RecA splice inh -0.3, Mtb bLac sens 4, Mtb H37Rv 7% and Arbovirus inh -13.
COc1cccc(OC)c1OCCCOc1ccc([N+](=O)[O-])cc1Cl was read as RecA splice inh 8.1, Mtb bLac sens -5, Mtb H37Rv 8%, Arbovirus inh 4 and YopH PTP inh -5.
COc1cc(S(=O)(=O)Nc2cccc3cn[nH]c23)c(OC)cc1Cl was read as RecA splice inh 1.6 and Mtb bLac sens 0.
For CCOC(=O)CN1C(=O)/C(=C/c2ccccc2Br)Oc2ccccc21 the results were RecA splice inh -21 and Mtb bLac sens 7.
Cn1c(=O)[nH]c(Nc2ccc(F)cc2)c([N+](=O)[O-])c1=O was read as RecA splice inh -1.2, Mtb bLac sens -4, Mtb H37Rv -1%, Arbovirus inh -4 and YopH PTP inh -51.
Screening COc1cc(C(=O)OCC(=O)NC(C)CCc2ccccc2)cc(OC)c1OC (configuration not stated) returned RecA splice inh 9.2 and Mtb bLac sens -2.
For CC1CCCN(C(=O)COC(=O)c2cc(-c3cccs3)nn2-c2ccccc2)C1 (configuration not stated) the results were RecA splice inh -3.2 and Mtb bLac sens 97.
For COc1ccccc1OCCCn1c(=O)oc2ccc(C)cc21 the results were Mtb bLac sens 4, Mtb H37Rv -7%, Arbovirus inh 1 and YopH PTP inh -41.
For COc1cc(NC(=O)CSc2nnc3c(C)cc4cc(C)cc(C)c4n23)c(C(=O)O)cc1OC the results were RecA splice inh 1.1, Mtb bLac sens -8, Mtb H37Rv -9% and Arbovirus inh 5.
Screening O=C(CCNC(=O)c1ccccc1)OCC(=O)c1ccccc1 returned RecA splice inh -2.5, Mtb bLac sens -6, Mtb H37Rv -1% and Arbovirus inh 4.
For COc1cc2nc(C3CCC3)n(N)c(=O)c2cc1OC the results were RecA splice inh 1.4 and Mtb bLac sens 0.
CCOc1nc2cnccc2n(CC(=O)Nc2c(F)c(F)cc(F)c2F)c1=O was read as RecA splice inh -2.1 and Mtb bLac sens -4.
`CC(=O)N[C@H]1[C@H](OC2CCCCC2)O[C@H](COC(C)=O)[C@@H](OC(C)=O)[C@@H]1OC(C)=O` gave RecA splice inh 0.0 and Mtb bLac sens -6.
Screening O=C(C(=O)N1CCc2ccccc2C1)c1cn(CC(=O)N2CCCCC2)c2ccccc12 returned RecA splice inh 1.6, Mtb bLac sens -1, Mtb H37Rv 5%, Arbovirus inh 2 and YopH PTP inh -19.
Screening COc1cc(NC(=O)CN(C)Cc2ccc(OC(F)F)cc2)c(C)cc1[N+](=O)[O-] returned RecA splice inh -4.6, Mtb bLac sens -5, Mtb H37Rv -2%, Arbovirus inh 14 and YopH PTP inh -3.

Next part, starting with the last 2 of the part before.
Screening O=C(C(=O)N1CCc2ccccc2C1)c1cn(CC(=O)N2CCCCC2)c2ccccc12 returned RecA splice inh 1.6, Mtb bLac sens -1, Mtb H37Rv 5%, Arbovirus inh 2 and YopH PTP inh -19.
Screening COc1cc(NC(=O)CN(C)Cc2ccc(OC(F)F)cc2)c(C)cc1[N+](=O)[O-] returned RecA splice inh -4.6, Mtb bLac sens -5, Mtb H37Rv -2%, Arbovirus inh 14 and YopH PTP inh -3.
Screening CC(=O)N1CCN(S(=O)(=O)c2ccc(S(=O)(=O)NCC(C)C)cc2)CC1 returned RecA splice inh -0.5, Mtb bLac sens -1, Mtb H37Rv -10%, Arbovirus inh 22 and YopH PTP inh 30.
COC(=O)c1cc(CSC(=N)N)ccc1OCCC(C)C was read as RecA splice inh 5.3, Mtb bLac sens -7 and Mtb H37Rv -12%.
`C[N+]1(C)CC2=Cc3ccccc3CC2C1` (configuration not stated) gave RecA splice inh 1.3, Mtb bLac sens -5, Mtb H37Rv -11% and Arbovirus inh -2.
CN1CCN(c2ccc(S(=O)(=O)Nc3ccccc3)cc2[N+](=O)[O-])CC1 was read as RecA splice inh 1.7, Mtb bLac sens 0, Mtb H37Rv 2%, Arbovirus inh 19 and YopH PTP inh -29.
Screening CCN(CC)C(=O)C(C)N(C#N)c1nc(SC)nc(N(C)C)n1 (configuration not stated) returned RecA splice inh -1.6, Mtb bLac sens inconclusive, Mtb H37Rv -1%, Arbovirus inh 2 and YopH PTP inh -27.
For CCC(CC)c1nnc(NC(=O)c2ccc3ccccc3n2)s1 the results were RecA splice inh 8.1, Mtb bLac sens 93, Mtb H37Rv 0.81µM*, Arbovirus inh -37 and YopH PTP inh -104.
For COc1ccc(N(C)C(=O)Nc2ccc3c(c2)nnn3C)cc1 the results were RecA splice inh 2.0, Mtb bLac sens 3, Mtb H37Rv -9%, Arbovirus inh 0 and YopH PTP inh -24.
For CCOc1ccc(S(=O)(=O)NCCCn2ccnc2)cc1NC(C)=O the results were RecA splice inh 1.5 and Mtb bLac sens -5.
Screening Cc1ccc(-c2nc(C#N)c(NCC3CCCO3)o2)cc1 (configuration not stated) returned RecA splice inh -0.9, Mtb bLac sens 0, Mtb H37Rv -2% and Arbovirus inh -8.
Cc1nc(=O)c(-c2ccccc2)c(C)n1-c1cccc(C(=O)O)c1 was read as RecA splice inh 4.8, Mtb bLac sens -11, Mtb H37Rv -3%, Arbovirus inh 5 and YopH PTP inh -2.
Screening CCOc1ccc(CNC(=O)CCC(=O)N2Cc3ccccc3Oc3ncccc32)cc1 returned RecA splice inh 0.8 and Mtb bLac sens -2.
Screening COCCCN(Cc1cccs1)S(=O)(=O)c1csc(C(N)=O)c1 returned RecA splice inh -2.1 and Mtb bLac sens 21.
CN(C)CCNC(=O)C(=O)NCC1CCCN1S(=O)(=O)c1cccs1 (configuration not stated) was read as RecA splice inh -4.3 and Mtb bLac sens -7.
For Cc1cc(N)n(-c2ccc(S(=O)(=O)c3ccc(C(C)C)cc3)cc2)n1 the results were RecA splice inh 5.5, Mtb bLac sens -7, Mtb H37Rv -3% and Arbovirus inh 27.
